KCNQ2 enhance: potentiators of rat KCNQ2 potassium channel; O88943; CHO-K1 KCNQ2, FluxOR thallium flux fluorescence; active compounds read high; B-score at 10 µM; 0.54% of 310,000 active;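 active = fluorescence ratio B-score at least 3 SD of library B-scores, with initial fluorescence B-score within 3 SD, cut at about 5.3 in these data; same plate scores as AID 2156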;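 note: B-score of peak minus minimum over baseline fluorescence ratio after K+ and Tl+ stimulus; positive B-score means potentiation of KCNQ2 with more thallium influx and brighter signal; only the inactives scoring about 0 or higher are listed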
Target sequence (O88943 whole entry, looked up): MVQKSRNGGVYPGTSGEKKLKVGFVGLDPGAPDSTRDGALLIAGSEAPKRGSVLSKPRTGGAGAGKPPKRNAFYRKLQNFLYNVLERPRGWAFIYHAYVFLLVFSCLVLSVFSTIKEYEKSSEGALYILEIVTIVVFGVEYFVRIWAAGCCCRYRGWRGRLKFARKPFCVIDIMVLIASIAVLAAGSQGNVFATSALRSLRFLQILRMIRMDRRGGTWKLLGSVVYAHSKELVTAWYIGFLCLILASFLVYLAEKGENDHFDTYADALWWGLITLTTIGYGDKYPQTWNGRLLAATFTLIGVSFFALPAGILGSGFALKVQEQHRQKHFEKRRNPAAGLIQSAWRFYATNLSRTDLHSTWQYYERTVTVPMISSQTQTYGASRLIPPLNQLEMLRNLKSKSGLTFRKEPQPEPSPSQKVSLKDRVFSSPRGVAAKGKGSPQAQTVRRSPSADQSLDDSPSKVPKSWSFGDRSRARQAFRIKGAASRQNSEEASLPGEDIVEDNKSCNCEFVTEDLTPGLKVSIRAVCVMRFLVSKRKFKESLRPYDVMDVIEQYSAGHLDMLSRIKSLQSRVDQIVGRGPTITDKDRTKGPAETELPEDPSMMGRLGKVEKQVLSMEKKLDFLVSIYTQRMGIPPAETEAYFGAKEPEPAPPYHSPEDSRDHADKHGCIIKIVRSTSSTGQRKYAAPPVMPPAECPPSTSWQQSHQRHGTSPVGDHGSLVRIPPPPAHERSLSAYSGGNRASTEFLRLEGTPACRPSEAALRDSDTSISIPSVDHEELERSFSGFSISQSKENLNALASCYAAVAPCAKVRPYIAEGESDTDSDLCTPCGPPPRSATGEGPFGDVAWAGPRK
KCNQ2 enhance baseline: further read-out of KCNQ2 enhance, marked with its call; B-score; compound at 10 µM; measured here: initial fluorescence intensity artifact check;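 brightness before thallium and not channel activity; 0 = typical well and far values either way flag optical interference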
* marks the source's active call; other numbers are inactive results.

Every second line gives: KCNQ2 enhance	KCNQ2 enhance baseline
1: CCOc1ccc(N(C)S(=O)(=O)c2ccc(-c3ccc(=O)[nH]n3)s2)cc1
    2	-1.44
2: C[N+](C)(C)C(Cc1ccccc1)C(=O)[O-] (stereo not given)
    0.07	-0.07
3: O=C1CCCc2[nH]nc(-c3cccnc3)c21
    0.76	1.11
4: COc1ccc(CN2CCN(C3CCC3)CC2CCO)c(F)c1 (stereo not given)
    13.1*	0.19*
5: C=CCNC(=O)c1oc2ccc(S(=O)(=O)N(CC)CC)cc2c1C
    2.56	-0.33
6: COc1ccc(CNC(=O)Cn2nc(C)c3c(C)n(-c4ccc(C)cc4)nc3c2=O)cc1OC
    0.75	0.91
7: CCN1C(=O)N[C@@H](CCc2ccccc2)[C@H](C(C)=O)[C@H]1C
    2.92	-0.06
8: COc1ccc(C2C(C#N)=C(N)OC3=C2C(=O)CC(C)(C)C3)cc1 (stereo not given)
    2.46	-1.78
9: Cc1cc(C)cc(Nc2cnn(C34CC5CC(CC(CC(=O)O)(C5)C3)C4)c(=O)c2Cl)c1
    1.78	-0.28
10: Cn1nc(C(=O)N2CCCCC2)c2c1-c1ccccc1S(=O)(=O)C2
    0.39	-0.73
11: CCOC(=O)C1(CCCc2ccccc2)CCN(C(=O)COC)CC1
    0.4	0.01
12: COc1ccc(OCC(=O)OCC(=O)NCc2ccc(F)cc2)cc1
    1.06	0.01
13: Cc1nn(Cc2ccc(Cl)cc2)c(C)c1NC(=O)c1ccc([N+](=O)[O-])cc1
    0.55	0.24
14: COc1ccc(-n2c(SCC(=O)N3CCCCC3)nc3ccccc3c2=O)cc1
    0.22	-0.14
15: COC(=O)C(C)(C)ONC(=O)Nc1ccccc1[N+](=O)[O-]
    0.46	1.69

Additional entries
Every second line gives: KCNQ2 enhance	KCNQ2 enhance baseline
16: Cc1cc(C(=O)COC(=O)C2CC2)c(C)n1-c1ccc(F)cc1
    0.59	-0.52
17: O=C(Nc1cccnc1Cl)c1cc2c(s1)-c1ccccc1OC2
    1.64	-0.18
18: O=C(CCl)NCc1cc(-c2ccc(Cl)cc2)no1
    2.56	-0.06
19: COc1ccc(C2CC(=O)C3=C(C2)Nc2ccccc2N(C(=O)CCC(=O)O)C3c2ccc(F)cc2)cc1 (stereo not given)
    0.04	0.62
20: OC(c1cccnc1)c1cccs1 (stereo not given)
    0.21	-0.66
21: Cc1ccc(C(=O)C[n+]2ccc3ccccc3c2)cc1
    0.33	-0.56
22: CCOC(=O)/C(C#N)=C1/SC(CC)C(=O)N1c1ccc(C)cc1 (stereo not given)
    1.62	-1.17
23: S=c1[nH]nc(Cn2nnc3ccccc32)n1-c1ccccc1
    0.99	-0.29
24: C/C(=N\OCC(=O)N/N=C/c1ccc(C)cc1O)c1cccs1
    0.16	0.18
25: COC(=O)c1[nH]c(C)c(/C(O)=C2\C(=O)C(=O)N(CCN(C)C)C2c2ccco2)c1C (stereo not given)
    1.85	0.27
26: CN1CCN(S(=O)(=O)c2ccc(Oc3cccc(C(F)(F)F)c3)nc2)CC1
    0.71	-0.04
27: O=C(Nc1ccnn1C1CCN(CC2CC=CCC2)CC1)c1ccccc1Cl (stereo not given)
    1.93	-0.39
28: Cc1ccc(S(=O)(=O)NCC(=O)N/N=C/c2ccc(Cl)cc2)cc1
    0.43	-1.09
29: Cn1c(SCc2nc3cc(C(=O)O)ccc3c(=O)[nH]2)nnc1C(F)(F)F
    0.14	0.23
30: COc1cccc2c(Nc3ccccc3C)cc(C)nc12
    0.88	1.11

Next entries
Every second line gives: KCNQ2 enhance	KCNQ2 enhance baseline
31: COC(=O)c1ccc(COc2ccccc2/C=N/NC(=O)c2cccnc2)cc1
    1.87	-1.46
32: Cc1cc(=O)cc(C)n1-c1ccc(Br)cc1
    1.43	1.01
33: COc1ccc(NC(=O)CCCn2cnc3ccccc3c2=O)cc1
    1.15	-1.31
34: COc1ccc(NC(=S)N(CCCN2CCCCCC2)Cc2cccs2)cc1
    0.19	-0.68
35: O=C(Nc1ccc(SC(F)F)cc1)C1=COCCO1
    0.89	-2.59
36: CCn1c(SCC(N)=O)nnc1-c1ccc(S(=O)(=O)N2CCN(C)CC2)cc1
    0.62	-0.06
37: CC(NC(=S)Nc1c(Br)cccc1OC(F)F)C(C)(C)C (stereo not given)
    0.38	-0.89
38: O=C(CCc1nnc(CCCc2ccccc2)o1)NCCN1CCOC1=O
    0.03	-2.7
39: CCCNS(=O)(=O)c1ccc(OCC(=O)N(C)Cc2ccccc2)cc1
    1	-0.75
40: Cc1ccc(CNc2oc(-c3cccs3)nc2C#N)cc1
    1.1	0.22
41: COCC(=O)Nc1sc2c(c1C(=O)OC)CCC(C)C2 (stereo not given)
    3.07	0.55
42: COc1cccc(N2CCN(CC(=O)c3c[nH]c4ccc(OC)cc34)CC2C)c1 (stereo not given)
    0.82	-1.9
43: O=c1c2ccccc2nc(/C=C/c2ccc(Br)cc2)n1CCO
    1.3	-1.07
44: CN(C(=O)COc1ccc2ccc(=O)oc2c1)C1CCS(=O)(=O)C1 (stereo not given)
    0.91	-0.14
45: CC1=CS(=O)(=O)CC1Sc1nc2ccccc2[nH]1 (stereo not given)
    2.19	-3.54

New compounds follow:
Every second line gives: KCNQ2 enhance	KCNQ2 enhance baseline
46: CN1CCN(C(CNC(=O)C(=O)Nc2ccc3c(c2)OCO3)c2ccc(F)cc2)CC1 (stereo not given)
    0.42	-1.31
47: Cc1ccc2nc3sc(C(=O)NCc4ccco4)c(N)c3cc2c1
    1.25	0
48: COc1cc2c(cc1NC(=O)c1cccnc1)oc1ccccc12
    0.79	-0.18
49: OCCNc1nc(Nc2ccc(Cl)cc2)nc(N2CCCC2)n1
    0.15	0.82
50: O=C(COC(=O)C1C2CC3OC(=O)C1C3C2)Nc1ccccc1 (stereo not given)
    0.25	-0.08
51: CCc1cc(=O)oc2cc(C)cc(OCC(=O)N[C@@H](CSCc3ccccc3)C(=O)O)c12
    0.84	-0.16
52: COc1ccc(NC(=O)C2=CC(c3ccc(C)cc3)=NS(=O)(=O)N2C)cc1
    1.12	0.16
53: Cc1ccc2nc(NC(=O)CSc3nnc(C)c(=O)n3N)sc2c1
    3.56	-2.46
54: CCN1CCN(c2ccc(N3CCN(S(=O)(=O)c4ccc(C)c([N+](=O)[O-])c4)CC3)nn2)CC1
    0.68	-0.2
55: CC(=O)Nc1ccc(C(=O)NCC2CCCCC2)cc1
    0.11	-0.01
56: CC1CCCCN1C(=O)N[C@@H](Cc1ccccc1)C(=O)O (stereo not given in full)
    1.73	-2.22
57: Cc1nn(C)c(C)c1/C=C/C(=O)c1ccc(Cl)cc1Cl
    0.32	0.29
58: CCOCCn1c(=O)c2c(nc3n2CCN3c2ccc(CC)cc2)n(C)c1=O
    0.08	1.86
59: O=C(NCC1c2ccccc2CCN1C(=O)CN1C(=O)c2ccccc2C1=O)C1CCCCC1 (stereo not given)
    0.17	-0.09
60: S=C(Nc1cccc(Cl)c1Cl)N1CCC2(CC1)OCCO2
    1.05	-0.01

More entries:
Every second line gives: KCNQ2 enhance	KCNQ2 enhance baseline
61: COC(=O)Cc1ccc(NC(=S)Nc2ccccn2)cc1
    1.52	-0.68
62: Cc1ccc(CC(=O)Nc2cccc([N+](=O)[O-])c2)cc1
    0.1	-2.47
63: CCOc1ccc(OCCC(=O)Nc2ccc(F)cc2C)cc1
    1.56	-0.36
64: CN(Cc1ccc(Cl)cc1Cl)C(=O)CNC(=O)c1ccco1
    0.89	-0.4
65: CC(C)n1c(CCCO)nc2ccccc21
    1.12	0.71
66: C/C(=N\NC(=O)c1cccc(Cl)c1)c1cccc(NC(=O)C(C)C)c1
    0.31	1.2
67: Oc1c(Br)cc(Br)cc1/C=N/NC(=S)N[C@H]1CC2C=CC1C2 (stereo not given in full)
    0.28	-0.05
68: COc1ccc(/C=C2\SC(N)=NC2=O)cc1Cl
    1.67	3.28
69: CC1CCCCN1C(=O)COC(=O)CNC(=O)c1sc2ccccc2c1Cl (stereo not given)
    2.34	0.27
70: O=C(Nc1ccc(Cl)cc1F)C1CCN(S(=O)(=O)c2cccc3nonc23)CC1
    1.11	-0.1
71: CCN(Cc1ccccc1)S(=O)(=O)c1cc(C(=O)NCCCN(C)C)ccc1OC
    0.42	1.06
72: CC1(C)CCCC2=C1CC1C(=O)N(N)C(=O)C1C2 (stereo not given)
    0.7	-0.52
73: COCCNC(=O)C(c1ccco1)N(C(=O)Cn1nnc2ccccc21)c1ccc(C)cc1C (stereo not given)
    0.66	0.01
74: COc1c(C)cc(Br)cc1C(=O)NCc1cccnc1
    0.1	0.71
75: Cn1c(=O)c2[nH]c(N3CCN(c4ccccc4)CC3)nc2n(C)c1=O
    2.43	0.05

Six entries drawn at random from those above, as already listed:
Every second line gives: KCNQ2 enhance	KCNQ2 enhance baseline
63: CCOc1ccc(OCCC(=O)Nc2ccc(F)cc2C)cc1
    1.56	-0.36
64: CN(Cc1ccc(Cl)cc1Cl)C(=O)CNC(=O)c1ccco1
    0.89	-0.4
62: Cc1ccc(CC(=O)Nc2cccc([N+](=O)[O-])c2)cc1
    0.1	-2.47
65: CC(C)n1c(CCCO)nc2ccccc21
    1.12	0.71
71: CCN(Cc1ccccc1)S(=O)(=O)c1cc(C(=O)NCCCN(C)C)ccc1OC
    0.42	1.06
67: Oc1c(Br)cc(Br)cc1/C=N/NC(=S)N[C@H]1CC2C=CC1C2 (stereo not given in full)
    0.28	-0.05

Later entries
Every second line gives: KCNQ2 enhance	KCNQ2 enhance baseline
76: CC(C)NC(=O)c1ccc(C(C)C)cc1
    2.05	-0.16
77: O=C(CN1CCN(C(=O)c2ccco2)CC1)Nc1ccc2c(c1)OCCO2
    0.91	0.33
78: CC(Nc1ccccc1)c1ccncc1 (stereo not given)
    0.86	-1.69
79: CCOC(=O)c1cnc(SCC(=O)Nc2ccc(NC(=O)CC)c(OC)c2)nc1N
    0.04	-0.39
80: CC(=O)c1cccc(N2C(=O)C3C4CCC(C4=C(C)C)C3C2=O)c1 (stereo not given)
    1.16	-2.13
81: COc1cccc(C2(O)CCN(C(=O)Cc3cccnc3)CC2)c1
    1.14	-0.45
82: O=C(CSc1ccsc1[N+](=O)[O-])N1CCCCCC1
    0.65	-1.82
83: Nc1nnc(C2CCCC2)s1
    0.35	1.02
84: O=C(COC(=O)c1cccc(C(F)(F)F)c1)NCc1ccccc1
    1.95	-0.38
85: CC(C)CNS(=O)(=O)c1cc2c3c(c1)CC(=O)N3CCC2
    1.19	-0.01
86: O=C1CC(c2cccc(F)c2)SC(N(c2ccccc2)c2ccccc2)=N1 (stereo not given)
    0.49	1.17
87: Cc1cc([N+](=O)[O-])ccc1NC(=O)Nc1ccccc1F
    1.29	-0.73
88: COC(=O)c1ccccc1S(=O)(=O)Nc1ccc2cn[nH]c2c1
    1.41	-0.29
89: CCOC(=O)Cc1csc(NC(=O)/C=C/c2ccccc2Cl)n1
    0.06	-1.31
90: O=C(NCCC1=CCCCC1)c1cnc2n(c1=O)CCS2
    1.16	0.17

The results go on:
Every second line gives: KCNQ2 enhance	KCNQ2 enhance baseline
91: O=C(Oc1cccc(/C=N/Nc2nc(N3CCOCC3)nc(N3CCOCC3)n2)c1)c1ccco1
    0.98	-1.56
92: O=C(c1ccccc1Br)N1CCN(c2ccccn2)CC1
    0.86	-0.05
93: COc1ccc(-n2c(CNC(=O)COc3ccccc3)n[nH]c2=S)cc1
    0.38	0.68
94: O=C(OCn1nnc2ccccc2c1=O)c1ccc2c(=O)n3c(nc2c1)CCC3
    0.54	-0.67
95: Cc1cc(CN(C)C(=O)CC2C(=O)NCCN2Cc2c(F)cccc2Cl)on1 (stereo not given)
    1.23	-1.14
96: Cc1cc(C(=O)OCC(=O)Nc2cccc(S(=O)(=O)N(C)C)c2)c(C)o1
    2.46	-0.53
97: CCC(C)[C@H](NC(=O)Nc1ccc2c(c1)OCCO2)C(=O)O (stereo not given in full)
    0.42	0.11
98: COc1ccc(S(=O)(=O)N2CCc3ccccc32)cc1C(=O)N1CCOCC1
    0.24	-0.18
99: NC(=S)N/N=C1\CCOc2ccc(Cl)cc21
    0.06	-1.97
100: O=C(Cn1cncc1-c1ccc([N+](=O)[O-])cc1)Nc1cccc2ccccc12
    0.89	-0.93
101: CCOc1ccc(N(CC(=O)NC2CCCCC2)C(=O)CSc2nnc(COc3ccccc3)o2)cc1
    0.47	-0.01
102: Cc1cccc(C)c1NC(=O)C1CCN(S(C)(=O)=O)CC1
    0.23	-0.01
103: CCCc1cc(Nc2cccc(OCC)c2)n2ncnc2n1
    0.5	0.93
104: O=C(CNC(=O)c1ccco1)OCC(=O)c1ccc2ccccc2c1
    0.42	-0.49
105: Cc1cc(C(=O)OCC(=O)NCCCN2CCCC2=O)c2ccccc2n1
    1.21	-2.27

(listing goes on)
Every second line gives: KCNQ2 enhance	KCNQ2 enhance baseline
106: C=CCOc1cccc(NC(=O)c2ccccc2SC)c1
    0.45	0.57
107: Clc1ccc(Oc2cnc3ccccc3n2)cc1
    1.32	0.9
108: CCOc1cc(C)c(S(=O)(=O)NCCCn2ccnc2)cc1C
    1.39	2.13
109: CCOc1ccc(NC(=O)N(CCC(C)C)C2CCN(C(C)=O)CC2)cc1
    1.94	-0.01
110: Cc1ccc(S(=O)(=O)N2CCN(C(=O)NCc3ccc(C(=O)O)cc3)CC2)cc1
    0.19	1.61
111: COc1ccc(OC(=O)c2cccc(S(=O)(=O)N3CCCC3)c2)cc1
    1.64	-0.99
112: CCOc1cc2c3c(c1)C1(Nc4ccccc4S1)C(=O)N3C(C)(C)CC2C (stereo not given)
    1.68	-0.13
113: COC(=O)c1ccc(C(=O)OC)c(NC(=O)CCC(=O)O)c1
    0.89	-0.32

From PubChem BioAssay

These rows are one share of the data; the hit share may differ from the screen's.
